Screening results as filed in PubChem.
rRNA inh HTS = inhibitors of bacterial rRNA selective over humanized ribosomes; E. coli WT GFP vs humanized-ribosome RFP mutants, fluorescence, 24 h; stronger effect = lower value; DMSO median 0, no signal -100; GFP signal change (wild-type ribosome), % (concentration not given with the values); 1.6% of 350,000 active; AID 720706;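 active = significant combined selectivity score with lowered wild-type GFP, culture density cut under 30%, mutant RFP and density less affected; inactive = any of these conditions unmet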; also: one replicate is shown; some compounds called inactive have numbers as strong as hits
Beta cell apopt = blocks beta cell apoptosis | 0.8% of 300,000 active | protection from apoptosis, % (concentration not given with the values) | AID 435005 | INS-1E cytokine-induced death, ATP luminescence, 48 h; percent of positive-control rescue, neutral wells zero;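 active = all replicates at 75% or more, or half of them and the mean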;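 also: 0% = cytokine-treated negative control wells and 100% = positive control rescue; higher means more ATP so stronger rescue from cytokine killing; wells of about 40 µL received 100 nL stock; the first replicate is given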
UCH37 inh = blocks the human deubiquitinase UCH37 | purified proteasome/UCH37, Ub-AMC cleavage fluorescence | AID 588478 | 0.33% of 330,000 active | inhibition, % (no concentration beside the values);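 active = mean of two replicates above 20%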;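 also: 0% = compound-free wells with enzyme and 100% = wells lacking proteasome; stock transfer was 100 nL into about 20 µL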
Target sequence (Q9Y5K5 whole entry, looked up): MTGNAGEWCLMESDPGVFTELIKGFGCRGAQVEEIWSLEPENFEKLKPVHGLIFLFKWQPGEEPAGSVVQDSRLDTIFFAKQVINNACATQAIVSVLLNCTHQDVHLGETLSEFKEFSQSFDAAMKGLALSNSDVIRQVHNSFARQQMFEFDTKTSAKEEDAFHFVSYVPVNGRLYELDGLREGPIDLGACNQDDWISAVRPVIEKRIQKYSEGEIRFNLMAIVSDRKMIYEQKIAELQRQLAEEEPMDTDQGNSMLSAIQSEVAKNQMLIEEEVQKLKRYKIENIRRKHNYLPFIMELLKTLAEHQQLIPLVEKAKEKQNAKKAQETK
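Schedule: 30 min plus 25 min, room temperature / Material: human UCH37 within purified proteasomes / Technique: AMC fluorescence intensity at 355/460 nm / Buffer or medium: pH 7.4 Tris-HCl (50 mM) with ovalbumin, ATP-MgCl2, DTT / Controls: wells without proteasome as full block, compound-free enzyme plus substrate as uninhibited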
T cruzi repl = T. cruzi replication inhibition; inhibition, % (no concentration beside the values); 1.4% of 300,000 active; T. cruzi beta-gal in NIH3T3, luminescence, 90 h; AID 1885;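 active = mean inhibition across valid replicates above about 55%, limit read from the data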;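 also: signal also drops with host cell toxicity which is not excluded here; 0% = plate median of DMSO wells and 100% = zero luminescence signal; higher percent means less beta-gal luminescence so fewer parasites; stock transfer was 50 nL into about 50 µL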
Bfl-1 A1 inh = inhibitors of the anti-apoptotic protein A1, read as caspase activation. MEF A1-2A-BIM cells, Caspase-Glo 3/7 luminescence, 3 h; percent of clofoctol response, vehicle zero. caspase activation, % (test concentration not listed). 0.066% of 330,000 active. AID 2462;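 active = over half of replicate activation scores above 10%, or exactly half above 10 with the replicate mean above 10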;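 also: wells of about 30 µL received 50 nL stock; many hits fall short of the cut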
AF4-AF9 inh = inhibitors of human MLL-AF4/AF9 interaction; 0.47% of 350,000 active; AID 651704; AlphaScreen, biotin-AF4 peptide binding to FLAG-AF9; P42568; inhibition, % at 10 µM;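 active = every replicate reaching a set inhibition limit, whatever the replicate mean, cut at about 25% in these data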;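 also: 0% = plate neutral control median and 100% = total signal loss; the record names both 10 and 1 µM as test concentration; the first replicate is given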
Target sequence (P42568 whole entry, looked up): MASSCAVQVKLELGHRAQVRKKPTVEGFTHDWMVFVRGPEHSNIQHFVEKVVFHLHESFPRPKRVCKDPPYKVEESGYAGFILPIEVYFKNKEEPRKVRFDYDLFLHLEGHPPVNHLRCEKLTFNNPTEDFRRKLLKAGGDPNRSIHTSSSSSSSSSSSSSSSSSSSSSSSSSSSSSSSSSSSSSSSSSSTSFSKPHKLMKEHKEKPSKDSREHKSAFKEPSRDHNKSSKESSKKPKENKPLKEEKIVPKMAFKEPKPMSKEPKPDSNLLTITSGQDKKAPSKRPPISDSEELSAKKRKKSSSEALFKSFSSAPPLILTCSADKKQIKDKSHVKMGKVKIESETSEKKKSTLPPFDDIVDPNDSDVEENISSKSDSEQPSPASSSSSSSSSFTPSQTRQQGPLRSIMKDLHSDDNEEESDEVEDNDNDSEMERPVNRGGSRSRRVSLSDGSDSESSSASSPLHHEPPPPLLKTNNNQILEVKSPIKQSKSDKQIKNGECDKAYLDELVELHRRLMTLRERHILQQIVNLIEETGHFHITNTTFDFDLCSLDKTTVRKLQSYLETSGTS
E coli growth = blocks Escherichia coli growth; OD600, 23 h; stronger effect = lower value; OD600 absorbance (test concentration not listed); 0.21% of 330,000 active;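 active = OD600 absorbance below the run mean of sample wells minus 3.6 SD, in any replicate, cut at about 0.56 in these data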;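 also: stock transfer was 300 nL into about 60 µL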
FGF22 binding = FGF22 (human) thermal shift binding; Q9HCT0; recombinant FGF22 thermal shift, SYPRO orange fluorescence; percent of sucrose octasulfate shift, DMSO zero; calls only at 9.99 µM; 1.5% of 340,000 active;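 active = melting point raised past a set limit in the mean and every replicate; three in four hits are not shown here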
Target sequence (Q9HCT0 whole entry, looked up): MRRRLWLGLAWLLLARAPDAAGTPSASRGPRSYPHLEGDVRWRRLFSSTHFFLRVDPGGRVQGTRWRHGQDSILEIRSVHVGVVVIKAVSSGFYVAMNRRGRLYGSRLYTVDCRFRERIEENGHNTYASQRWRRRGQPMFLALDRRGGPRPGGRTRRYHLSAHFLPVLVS
rRNA inh HTS OD600 = second read-out of rRNA inh HTS, no call of its own (marks repeat the call); OD600 change, %; measured here: OD600 growth;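 optical density of the mix in the first replicate; 0 = DMSO median and -100 = no signal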
rRNA inh HTS RFP = recorded beside rRNA inh HTS, whose call it bears; RFP signal change, %; measured here: RFP humanized mutant strains;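 first replicate; 0 = DMSO median and -100 = no signal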
Starred values were filed as active, the others as inactive; i = inactive; x = not tested or not shown.

SMILES	rRNA inh HTS	rRNA inh HTS OD600	rRNA inh HTS RFP	Beta cell apopt	UCH37 inh	T cruzi repl	Bfl-1 A1 inh	AF4-AF9 inh	E coli growth	FGF22 binding
CCOc1cc(/C=N/NC(=O)c2cccc(S(=O)(=O)N3CCCC3)c2)ccc1OCC(=O)N(C)C	8.0	7.7	-0.1	3.3	x	-7.1	1.8	0.0	x	i
CCN1/C(=C/c2cc[n+](CCCS(=O)(=O)[O-])c3ccccc23)Sc2ccccc21	38.1	14.2	6.7	6.0	4.4	20.8	0.2	-1.3	0.707	i
Cc1nn(C)cc1-c1csc(N)n1	4.0	1.8	0.5	-4.9	6.5	-5.2	0.2	-20.6	0.715	i
CCSc1nnc(NC(=O)c2csc3c2CCC(C)C3)s1 (centres undefined)	x	x	x	2.9	-2.7	-19.8	-0.4	x	0.769	x
COc1ccc(C2=NN(C(=O)CSC3=NN4CCCC(=O)N=C4S3)C(c3cccc(OC)c3OC)C2)cc1 (centres undefined)	0.6	1.0	-0.7	5.6	2.2	-4.0	0.0	0.3	0.757	i
CCOc1ccc(S(=O)(=O)NCc2cccs2)cc1C(C)C	-35.0	-45.1	-6.0	x	1.2	x	x	1.8	0.686	i
C[C@]12CC[C@@H]3c4ccc(O)cc4CC[C@H]3[C@@H]1CC[C@@H]2O	-10.2	-23.7	-4.1	-3.3	2.2	-6.3	0.4	-4.8	x	i
Cc1ccc(CN2CCN(Cc3cn[nH]c3C3CCCCC3)CC2CCO)cc1 (centres undefined)	5.5	0.0	9.4	1.2	x	6.2	0.3	-3.8	x	i
CC(c1ccc(O)cc1)(c1ccc(O)cc1)c1ccc(CCBr)cc1	-47.0	-73.8	-10.1	-0.5	x	12.5	0.5	0.6	x	i
C#CCOCCOCCOCCNc1nc(N2CCN(C(=O)[C@H](CCCN=C(N)N)n3cc(C(N)[C@@H](C)CC)nn3)CC2)nc(N2CCN(C(=O)[C@H](CO)n3cc([C@@H](N)C(C)C)nn3)CC2)n1 (some centres undefined)	10.4	11.1	2.4	-10.4	4.0	x	0.8	29.3*	0.697	i
CCc1nc2ccc(C(=O)N3CCN(c4cccc(OC)c4)CC3)cc2nc1CC	-34.0	-36.1	-5.9	0.6	4.8	8.8	0.3	-8.7	0.64	i
COc1ccc(-c2nn(CCC(=O)O)cc2CCC(=O)O)cc1	x	x	x	1.6	1.8	10.0	0.2	x	0.704	x
O=C(c1cc(Sc2cccc(Cl)c2)nc2ccccc12)N1CCN(c2ccccn2)CC1	-14.8	-5.9	1.3	-8.1	1.5	15.5	-0.3	1.1	0.701	i
Cc1ccc(C(=O)OCC(=O)N(C)C2CCS(=O)(=O)C2)cc1S(=O)(=O)N1CCOCC1 (centres undefined)	6.7	4.2	-1.6	x	0.5	-3.2	0.2	-0.6	0.673	i
CC1(C)CC(CCC(=O)Nc2ccccc2Cl)C(=O)O1 (centres undefined)	5.1	0.9	-1.0	-3.7	0.7	-4.9	-0.2	7.2	0.608	i
COc1ccc(CCN=C(N)NS(=O)(=O)c2ccc3ccccc3c2)cc1	x	x	x	x	3.1	-6.0	0.0	x	0.7	x
CCN(CC)C(=O)N1CCN(Cc2ccc3c(c2)OCO3)CC1	6.6	6.7	1.2	-15.5	3.4	-6.5	0.4	-1.9	0.683	i
Cc1cccc(-c2cc3nc(C)cc(N4CC(C)CC(C)C4)n3n2)c1 (centres undefined)	x	x	x	4.9	-44.0	x	-0.2	x	0.803	x
Cc1[nH]nc(NNC(=O)c2ccccc2)c1[N+](=O)[O-]	-0.1	8.5	-0.3	-2.1	8.1	x	0.5	-1.2	0.69	i
COc1ccc(CC(=O)N[C@@H]2c3cc(OC)c(OC)cc3C[C@H]2OCc2ccccc2)cc1	29.5	19.2	4.8	x	2.4	x	x	-1.7	0.733	i
CN(C)c1ccc(NC(=O)Nc2ccc3c(c2)nnn3C)cc1	6.1	16.1	-1.1	0.0	-1.5	-12.0	0.0	-5.0	0.653	i
CCOC(=O)N1CC(C)N(CC(O)CN2CCOCC2)CC1C (centres undefined)	19.1	19.2	2.8	x	1.6	x	x	-5.9	0.697	i
O=C(C(c1ccccc1)C(O)c1ccccc1)N1CCOCC1 (centres undefined)	6.8	7.2	-0.6	x	3.1	x	x	-2.4	0.71	i
O=C(NCCc1ccccc1)C1CC(c2ccccc2O)=NO1 (centres undefined)	x	x	x	2.4	-1.3	-30.6	0.0	x	0.655	x
O=c1[nH]c2ccc(Br)cc2o1	-3.3	5.6	6.6	x	-1.3	x	x	0.2	0.644	i
CCn1cnc2c1c(=O)n(Cc1ccc(C(=O)OC)cc1)c(=O)n2Cc1ccccc1	5.3	0.9	0.0	5.8	1.4	2.7	0.2	-17.2	0.664	i
CC12CCC(=O)N1C(C(=O)Nc1ccccc1F)CS2 (centres undefined)	2.6	8.5	-1.9	x	2.3	-14.7	1.0	7.8	0.645	i
O=C(N/C(=C/c1cccnc1)C(=O)N1CCCCCC1)c1ccccc1	-0.1	3.4	-2.2	-0.3	2.5	-7.2	0.3	0.1	0.681	i
CC(C)c1ccc(/C=C/C(=O)Nc2ccc(CN3CCOCC3)cc2)cc1	8.4	11.9	4.0	-2.1	2.2	8.8	1.0	2.0	0.661	i
Cc1ccc(N2C(=O)/C(=C\c3ccco3)SC2=S)cc1	x	x	x	-1.1	2.8	-17.3	0.1	x	0.747	x
CC(=O)Nc1ccc(S(=O)(=O)N2CCc3ccccc3C2)cc1	x	x	x	-6.7	1.3	7.3	-1.2	x	0.67	x
COc1ccc(CNC(=O)c2ccccc2SCC(=O)NCc2ccco2)cc1	0.9	9.5	-1.2	1.5	3.1	x	0.3	-0.5	0.701	i
O=C(NC(=S)Nc1ccc2[nH]c(=O)[nH]c2c1)c1cc(Br)ccc1Cl	6.9	10.1	1.5	-4.1	6.4	-6.1	0.8	-1.5	0.751	i
Cc1c(NS(=O)(=O)c2cccc(C(=O)NCc3ccco3)c2)c(=O)n(-c2ccccc2)n1C	2.4	0.5	0.3	x	-0.3	x	x	-1.4	0.705	i
O=C(CSc1ccc(-c2cccnc2)nn1)N1CCCc2ccccc21	-23.2*	-10.0*	6.6*	2.5	3.3	-4.3	0.5	-6.4	0.657	i
CS(=O)(=O)N1Cc2ccccc2CC1C(=O)OCC(=O)NCCc1ccc(S(N)(=O)=O)cc1 (centres undefined)	10.8	3.7	2.9	-3.3	1.6	x	-0.4	1.2	0.699	i
O=C(CC(=O)NCc1ccc(Cl)cc1)NCc1ccc(Cl)cc1	0.7	7.4	-2.3	-3.7	1.5	-3.6	1.0	1.5	0.693	i
COc1ccccc1OCCOc1ccc(/C=C2/C(=N)N3OC(C)=CC3=NC2=O)cc1OC	x	x	x	-5.2	-55.6	12.8	-0.1	x	0.707	x
Clc1ccc(OCc2nnc(SCCN3CCCCC3)n2Cc2ccco2)cc1	x	x	x	-0.4	1.2	16.8	0.0	x	0.648	x
Cc1[nH]n(S(=O)(=O)c2ccccc2)c(=O)c1N=Nc1cccc(Cl)c1	8.9	16.9	-0.4	4.3	1.5	-12.2	-1.4	-2.1	0.646	i
CCOc1ccccc1N(CC(=O)Nc1ccc(OC)cc1OC)S(=O)(=O)c1ccccc1	-0.1	0.7	0.6	-8.2	5.4	14.1	-2.0	3.4	0.729	i
Cc1cc(C)nc(NC(=S)NC(=O)c2ccccc2F)n1	0.0	6.9	1.5	-0.2	1.8	12.1	0.4	1.9	0.676	i
COc1ccc(C2C(C(=O)N3CCN(C)CC3)c3cc(OC)c(OC)cc3C(=O)N2C)cc1 (centres undefined)	16.9	14.1	5.6	-9.7	0.8	-13.6	0.3	0.2	0.7	i
O=C1c2cccc3c(N4CCCCC4)ccc(c23)C(=O)N1CCO	x	x	x	-6.1	6.7	12.7	0.5	x	0.678	x
COc1ccc(/C=N/NC(=O)c2ccc(CN3C(=O)c4cccc5cccc3c45)cc2)cc1O	-8.0	-24.1	-2.3	5.9	x	1.3	0.0	-2.0	x	i
C=CCNc1nc(Nc2ccc(-c3nc4ccccc4o3)cc2)nc(N2CCOCC2)n1	2.5	7.6	-4.7	1.7	-244.7	45.2	0.1	-3.6	0.738	i
Cc1nn(Cc2ccc(F)cc2)c(C)c1NC(=O)c1cc(-c2ccco2)on1	7.4	28.3	21.0	-6.2	0.3	-10.6	-0.1	-1.4	0.673	i
CCCNC(=O)c1onc(CSc2ccc(F)cc2)c1C(=O)NC(C)C	7.9	-7.8	-4.3	-14.1	-0.2	0.0	-0.3	-3.4	0.709	i
CCOc1ccc(OCC)c(NC(=O)c2ccc(CNc3c(N4CCOCC4)c(=O)c3=O)cc2)c1	x	x	x	-3.2	-3.8	-1.2	0.8	x	0.758	x
Cc1nnc(SCC(=O)NNC(=O)CC#N)[nH]c1=O	x	x	x	-2.2	2.7	-7.4	0.9	-7.5	0.669	i
CCOc1ccccc1NC(=O)C(C)CC (centres undefined)	15.2	13.0	-1.2	-11.8	4.0	-11.7	-0.1	-0.5	0.64	i
COC(=O)c1ccc(/C=C(\C#N)c2ccccn2)cc1	-26.2	-33.8	-4.7	3.2	3.4	-3.8	-5.8	11.9	0.608	i
CC1(C(=O)O)CCC(C(=O)NCCc2ccccc2)C1(C)C (centres undefined)	x	x	x	-1.6	4.5	-1.2	0.5	x	0.784	x
COc1cccc(C(=O)COc2ccc3ccc(=O)oc3c2)c1	11.4	16.1	-0.2	-10.9	-19.5	-5.0	-0.4	-0.7	0.716	i
CCCSCCCNC(=O)Cn1c(=O)c2cccn2c2ccccc21	0.9	-9.2	-2.9	-9.4	5.7	6.4	-0.5	2.2	0.668	i
CC1CC(C)CN(CC(=O)c2c[nH]c3ccccc23)C1 (centres undefined)	6.5	8.7	1.4	-2.1	5.0	11.5	0.6	-1.0	0.708	i
COc1ccc(C(CC(=O)O)N2Cc3ccccc3C2=O)cc1 (centres undefined)	-1.4	-11.7	1.0	-6.5	2.8	-8.0	0.8	-0.5	0.656	i
Cc1cccc(NC(=O)CSCC(=O)NCc2ccco2)c1	2.9	7.2	3.5	-3.5	-0.8	-3.6	-0.9	0.1	0.694	i
COc1cccc(OC)c1C(=O)Nc1nc(-c2ccccc2)cs1	-2.1	-0.4	0.0	x	3.1	-1.1	-0.6	-0.6	0.718	i
COc1ccc(OC)c(CCNC(=O)CS(=O)(=O)Cc2nc(-c3ccccc3Cl)oc2C)c1	-40.9	-49.0	-7.2	2.8	0.5	16.2	-0.3	2.9	0.705	i
CC(=O)Nc1ccc(NC(=O)c2ccccc2C)cc1	10.3	7.2	-3.0	x	-1.5	-0.2	0.2	-1.4	0.637	i
CC(C)(C)C1CCC(C(=O)OCC(=O)N2CCOCC2)CC1 (centres undefined)	10.8	6.5	6.9	-3.3	-1.5	-2.5	0.3	-2.5	0.683	i
CCN1CCN(CCC(=O)Nc2ccccc2C)CC1	3.0	-2.2	6.6	-1.3	3.1	-11.3	1.0	-1.8	0.65	i

Only part of the results is shown; the hit share may differ from the screen's.
